Screens from PubChem BioAssay.
WNV protease inh: inhibitors of WNV NS2B-NS3 protease, primary screen, biochemical, fluorogenic substrate; 65,000 compounds, 0.18% hits; z-score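 (tested at a level between 10 and 100 µM)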; fluorogenic substrate Ex360/Em465; hits give low values;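 active means z-score at -3 or under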;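 further: score is relative to mean and spread of the compound wells of a plate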
Target sequence (P06935 1371-1501 limits assumed): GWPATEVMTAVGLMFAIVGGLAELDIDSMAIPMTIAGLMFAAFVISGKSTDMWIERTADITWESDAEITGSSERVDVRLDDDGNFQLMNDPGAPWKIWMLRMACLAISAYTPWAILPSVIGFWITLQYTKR
Target sequence (P06935 1502-1679 limits assumed): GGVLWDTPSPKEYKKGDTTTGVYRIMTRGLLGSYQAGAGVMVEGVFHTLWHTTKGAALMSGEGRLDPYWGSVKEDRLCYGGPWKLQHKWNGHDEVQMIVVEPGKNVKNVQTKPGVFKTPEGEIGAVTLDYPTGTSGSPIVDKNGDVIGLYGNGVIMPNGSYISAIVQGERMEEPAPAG
MT1-MMP reporter: inhibitors of MT1-MMP promoter transcription, cell-based, luciferase reporter, luminescence (AID 618). MT1-MMP promoter luciferase reporter cells, luminescence. calls from a first round at 10 µM; hits with a dose series show EC50 in µM. 87,000 compounds, 0.62% hits;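 active means over half of the reporter light lost at 10 µM or EC50 under 50 µM; inactive means the rest and hits that failed the dose series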;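 further: actives suppress MT1-MMP promoter-driven transcription so potencies describe inhibitors; HT1080 fibrosarcoma cells; overnight exposure; toxic or luciferase-blocking compounds were not removed from the actives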
Hsc70 ATP site: Hsc70 inhibitors, probe displacement, primary screen, biochemical, fluorescence polarization (AID 568); Heat shock cognate 71 kDa protein (Homo sapiens); Hsc70 fluorescence polarization, probe displacement; higher % means a stronger effect; strong numbers were not always called active; one-dose displacement, % at 20 µM; IC50 in µM for titrated hits; 83,000 tested, under 10 active;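 active means displacement above 50% without optical interference and an IC50 on retest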;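 further: ATPase domain with a fluorescein-tagged ATP probe; 0% = vehicle and 100% = excess ADP; read after one hour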
Starred values were filed as active, the others as inactive; i = inactive; / = not tested or not shown; + = active, no number. These rows are one share of the data, so the mix of outcomes need not match the whole.

| Structure | WNV protease inh | MT1-MMP reporter | Hsc70 ATP site |
| --- | --- | --- | --- |
| CCC(CC)c1nnc(NC(=O)CN2C(=O)C3C4C=CC(C4)C3C2=O)s1 (stereo unspecified) | / | i | -2.2% |
| COCc1c(C)cc(C)c(/C=N/O)c1C | 0.08 | i | 0.1% |
| COc1cccc(C(C(=O)NCc2ccco2)N(Cc2ccco2)C(=O)Cn2nnc3ccccc32)c1 (stereo unspecified) | / | i | 4.1% |
| CN(Cc1nc(-c2cccnc2)no1)S(=O)(=O)c1ccc2ccccc2c1 | -0.07 | i | 1.5% |
| O=C(Nc1nc(-c2cccs2)cs1)c1ccc(Cl)s1 | -0.24 | i | -5.1% |
| O=C(NCc1ccc(F)cc1)c1cc2ccccn2n1 | -1.17 | i | -2.9% |
| CC1=C(c2ccccc2)[N+](=O)C2(CCCC2)N1[O-] | -0.13 | i | -5.7% |
| CCOc1ccc(C(=O)N(Cc2ccc(N(C)C)cc2)C2CCS(=O)(=O)C2)cc1 (stereo unspecified) | -0.38 | i | 4.6% |
| CCOc1ccc(OCc2ccc(C(=O)N3CCOCC3)cc2)cc1 | / | i | -3.2% |
| Cc1cc(C)c(S(N)(=O)=O)c(C)c1-n1cnnn1 | 2.39 | i | 2.7% |
| CCN(CC)CCCN1C(=O)C(=O)/C(=C(/O)c2ccc3c(c2)CC(C)O3)C1c1ccncc1 (stereo unspecified) | -0.37 | i | 0.6% |
| COc1ccc(-c2nnc3n2N=C(c2cccc(Br)c2)CS3)cc1OC | -1.69 | i | -8.9% |
| CC(C)Cn1c(N)c(C(=O)COC(=O)C2CCCCC2)c(=O)n(C)c1=O | -0.59 | i | -0.7% |
| Cc1nn(C(C)(C)C)c(OC(=O)C2CCCC2)c1S(=O)(=O)c1ccccc1 | 0.53 | i | 0.0% |
| O=C(Nc1ccccc1OC(F)F)c1ccc(Br)o1 | 0.01 | i | 1.3% |
| Cc1cc(OCC(=O)Nn2cnnc2)ccc1Br | 0.94 | i | 5.0% |
| N#CC1=C(N)SC(N)=C(C#N)C1c1ccnc2ccccc12 | 1.33 | i | -67.0% |
| Cc1cc(C(=O)CSc2nnc(-c3ccco3)o2)c(C)n1CC1COc2ccccc2O1 (stereo unspecified) | -0.65 | i | -9.3% |
| O=C(NCc1ccc2c(c1)OCO2)c1ccc2c(c1)OCCO2 | / | i | 0.7% |
| COC(=O)c1ccccc1NC(=O)c1cnc2sccn2c1=O | -1.09 | i | -0.4% |
| O=S(=O)(c1ccc2ccccc2c1)N1CCN(S(=O)(=O)N2CCOCC2)CC1 | -0.41 | i | 4.4% |
| O=C(NC(O)C(=O)c1ccccc1)c1cccs1 (stereo unspecified) | -0.41 | i | -0.1% |
| Cc1ccc(Sc2c(C)[nH]n(C(C)(C)C)c2=O)cc1 | -0.57 | i | -3.0% |
| COc1cccc(NC(=O)CCN2CCN(C)CC2)c1 | -1.09 | i | 3.8% |
| CCNc1sc(C(=O)c2cccs2)c(N)c1-c1nc2ccccc2s1 | 1.47 | i | 1.9% |
| COc1cccc(C(=O)N2CCN(C3CCN(Cc4ccccc4)CC3)CC2)c1 | / | i | 1.6% |
| O=c1c2ccccc2[nH]c(=S)n1Cc1cccnc1 | -0.00226 | i | -0.7% |
| CN(c1ccccc1C(=O)NCc1ccco1)S(C)(=O)=O | 0.28 | i | 4.2% |
| CCCCNC(=O)CSc1nnc(-c2ccc(S(=O)(=O)N3CCCC3)cc2)n1C | / | i | 7.9% |
| CCN1CCn2c3c(c4cc(C)ccc42)CCCC31 (stereo unspecified) | -0.41 | i | 1.1% |
| c1csc(-c2nn3c(Cn4nnc5ccccc54)nnc3s2)c1 | 0.84 | i | 2.1% |
| COc1ccc(-c2nnc(SCC(=O)c3cc(C)n(Cc4cccs4)c3C)o2)cc1 | 0.08 | i | 0.2% |
| Cc1cc(Nc2ccc(F)cc2C)n2ncnc2n1 | 3.02 | i | -1.2% |
| O=c1cc(CO)oc(CN2CCCC2)c1O | -0.13 | i | 0.5% |
| O=C(CSc1nc(-c2ccc(F)cc2)cs1)N1CCN(C(=O)c2ccco2)CC1 | -0.43 | i | 3.5% |
| COc1cc(CNc2ccc3[nH]c(=O)[nH]c3c2)cc(Cl)c1OCC(=O)NC(C)(C)C | 0.24 | i | 1.3% |
| COc1ccccc1OCCC(=O)OCCN1C(=O)c2ccccc2C1=O | -1.25 | i | 0.9% |
| O=C(c1ccc2c(c1)OCO2)N1CCN(c2ccc(Cl)cc2)CC1 | -1.24 | i | 0.8% |
| COc1ccc(C(=O)NCc2c(CC(C)C)oc(C)c2C(=O)O)cc1 | -1.09 | i | 3.7% |
| c1ccc(-c2n[nH]nc2-c2ccccc2)cc1 | 1.6 | i | 1.7% |
| O=C(COC(=O)c1cccnc1)Nc1ccc(F)cc1 | 1.51 | i | 3.1% |
| O=C(CN(C1CCCCC1)S(=O)(=O)c1ccc(F)cc1)Nc1ccc2c(c1)OCO2 | / | i | 6.0% |
| O=C(CC(c1ccc(F)cc1)c1ccco1)N1CCCC1 (stereo unspecified) | -0.98 | i | -4.9% |
| CCOc1ccc(CC(=O)C2C(=O)CCCC2=O)cc1OCC | 1.31 | i | 4.6% |
| CCCCC(=O)O[C@]1(C(=O)CO)CC[C@H]2[C@@H]3CCC4=CC(=O)CC[C@]4(C)[C@H]3[C@@H](O)C[C@@]21C | -0.05 | i | -0.9% |
| CCN(CC)c1ccc(NC(=O)CC2Oc3ccccc3NC2=O)c(C)c1 (stereo unspecified) | 0.93 | i | -2.2% |
| O=C(NC1CCCCC1)N1CCCC1 | / | i | -1.8% |
| CC(=O)Nc1cccc(NC(=O)CSc2nn3c(=O)c(C)nnc3s2)c1 | 0.67 | i | 2.2% |
| COC(=O)c1c(NS(C)(=O)=O)sc2c1CCCC2 | -0.3 | i | 3.6% |
| Cc1[nH]c(=O)[nH]c(=O)c1S(=O)(=O)N(C)Cc1ccccc1 | -0.93 | i | 0.9% |
| CCC(C)Sc1nc2c(c(=O)n1C)SC(C)C2 (stereo unspecified) | -0.14 | i | 2.8% |
| C=CCn1c(COc2cccc3ccc(C)nc23)nnc1SCC(N)=O | -1.07 | i | -1.3% |
| CCOC(=O)CSc1nc(NC#N)nc(N(CC)CC)n1 | 0.33 | i | 73.0% |
| COc1ccc2cc3cc(C(=O)Nc4ccc5c(c4)OCO5)oc3nc2c1 | 0.03 | i | -13.1% |
| O=C(CSc1nnnn1-c1ccccc1)Nc1ccc(Cl)cn1 | -0.71 | i | 4.0% |
| CCOC(=O)c1sc(SCC(=O)Nc2ccc(N(C)C)cc2)nc1N | -1.66 | i | -4.1% |
| CCOC(=O)C1(C)/C(=N/Nc2ccccc2Cl)C(=O)C(=O)N1c1ccccc1 (stereo unspecified) | / | i | 4.6% |
| CCOc1ccc(C(=O)Nc2ccc3c(c2)OCO3)cc1OCC | 1.74 | i | 1.5% |
| COc1cccc(-c2cc(C(=O)N3CC4(C)CC3CC(C)(C)C4)no2)c1 (stereo unspecified) | -1.06 | i | 4.0% |
| O=C1Cc2ccccc2C(c2ccccc2)N1 (stereo unspecified) | -1.31 | i | -6.4% |

Next section
Screens in order: WNV protease inh, MT1-MMP reporter, Hsc70 ATP site
CC(C)CNC(=O)C1CCCN(S(=O)(=O)c2ccc(-n3cnnn3)cc2)C1 (stereo unspecified)
  -0.28, i, -4.0%
O=C(NCc1ccco1)C(c1ccco1)N(Cc1cccs1)C(=O)Cn1nnc2ccccc21 (stereo unspecified)
  /, i, 5.1%
CCC(C)N1C(=O)CCC1C(=O)NCc1ccc2c(c1)OCO2 (stereo unspecified)
  0.49, i, 2.0%
N#C/C(Cn1c[n+](NC(=O)Nc2ccccc2)cn1)=N/O
  -0.96, i, -7.8%
CC1CN(CC(O)COc2ccccc2C(C)(C)C)CC(C)O1 (stereo unspecified)
  0.13, i, 5.4%
CCN1c2ccccc2NC2N=C(OC)C(c3ccccc3)C21 (stereo unspecified)
  -0.39, i, -1.1%
COc1ccc(OC)c(NC(=O)c2ccc(NS(C)(=O)=O)cc2)c1
  /, i, -6.4%
NC(=O)c1nn(-c2ccccc2)nc1NC(=O)CN1CCCCC1
  0.29, i, -5.0%
COc1ccc2[nH]c(C)c(CN3CCCC(C)C3)c(=O)c2c1 (stereo unspecified)
  1.08, i, 0.3%
CCOc1ccc(C(=O)NCCn2cc(SCC(=O)Nc3cc(C)on3)c3ccccc32)cc1
  -1.19, i, -5.8%
COc1ccc2[nH]c(=O)c(CN(CCCN(C)C)C(=O)Nc3ccc(F)cc3)cc2c1
  -0.84, i, -1.6%
C=CCOC(=O)COc1ccc2c(C)c(C)c(=O)oc2c1C
  -0.61, i, 2.2%
CC(=O)Nc1c(Br)cc(N2C(=O)CCC2=O)cc1Br
  /, i, 6.6%
Cc1cc2nc(-c3ccc(NC(=O)c4cccnc4)cc3)oc2cc1C
  -0.13, i, -4.8%
CCn1nc(C(=O)NC2=NCCS2)c2ccccc2c1=O
  2.7, i, -11.0%
O=C(C1CCCCN1S(=O)(=O)c1ccc(F)cc1)N1CCN(c2ccccc2F)CC1 (stereo unspecified)
  -0.36, i, -1.0%
Cc1ccc2nc(NC(=O)CNS(=O)(=O)c3ccc(Br)s3)sc2c1
  -2.35, i, -0.4%
O=C(Nc1cccc(-c2cn3cccnc3n2)c1)c1ccc2c(c1)OCO2
  1.95, i, -8.1%
COc1ccc(CCNc2ccncn2)cc1
  /, i, -4.5%
CCOC(=O)C1=C(C)NC(=O)NC1c1ccco1 (stereo unspecified)
  1.33, i, 3.7%
CCCCSc1nnc2n(CCc3ccccc3)c(=O)c3c4c(sc3n12)COC(C)(C)C4
  -0.5, i, -4.8%
O=C1C(c2ccc(F)cc2)N(Cc2ccc3c(c2)OCO3)C(=O)CN1C1CCCCC1 (stereo unspecified)
  -1.3, i, 4.7%
C=C(C)CSc1nnc(-c2ccccc2)n1N
  0.16, i, -5.8%
O=S1(=O)C=CC(Sc2nc3ccccc3[nH]2)C1 (stereo unspecified)
  0.29, i, 1.3%
O=C(CCC1N=C2c3ccccc3N=C(SCc3cccc(Cl)c3)N2C1=O)NCc1ccco1 (stereo unspecified)
  0.76, i, -7.8%
CC1Cc2ccccc2N1C(=O)c1cccnc1 (stereo unspecified)
  -0.46, i, -0.1%
Cc1ccccc1Cn1ccc(NC(=O)c2cnn3cccnc23)n1
  1.84, i, 2.9%
COc1ccc(-c2cc(-c3ccccc3O)[nH]n2)cc1OC
  -0.64, i, 2.0%
O=C(O)CC(C(=O)Nc1ccc(Cl)c(Cl)c1)C1CCCO1 (stereo unspecified)
  /, i, -0.3%
Cc1ccccc1OCCn1c(=O)sc2ccccc21
  /, i, -1.5%
Cc1nnc(SCc2ccc(CC(=O)O)cc2)o1
  -1.69, i, 2.5%
Cc1ccc(Cc2nnc3n(-c4ccccc4)nc(C(=O)c4ccccc4)n3c2=O)cc1
  /, i, -3.6%
Oc1cccc2ccc(Nc3ccccn3)nc12
  1.73, +, -5.3%
O=C(CN1C(=O)c2ccccc2S1(=O)=O)Nc1ccccc1
  /, i, 2.2%
Cc1ccc(S(=O)(=O)N2CCN(C(=O)N(c3ccccc3)c3ccccc3)CC2)cc1
  /, i, 0.8%
O=C1CCC(=O)N1CN(Cc1ccco1)CN1C(=O)CCC1=O
  0.38, i, 4.1%
Cn1c(=O)c2c(O)cc(=O)[nH]c2n(-c2ccccc2)c1=O
  0.35, i, -8.0%
CC(C)[N+](C)(CCOC(=O)C1c2ccccc2Oc2ccccc21)C(C)C
  0.05, i, 1.0%
CCC(=O)N1CCN(c2ccccc2NC(=O)COc2ccccc2Cl)CC1
  1.45, i, 8.1%
COc1ccc(-c2noc(-c3ccc4c(c3)OCO4)n2)cc1
  /, i, 4.4%
COc1ccc(N2CCN(C(CNC(=O)c3ccco3)c3cccnc3)CC2)cc1 (stereo unspecified)
  -0.3, i, 4.5%
COc1ccc(-n2c(Cc3cccn3C)nnc2SCC(=O)Nc2ccc(F)cc2F)cc1
  0.1, i, 1.0%
Cc1nn(C(C)c2n[nH]c(=S)n2-c2cccc(Cl)c2)c(C)c1[N+](=O)[O-] (stereo unspecified)
  /, i, 3.3%
COc1ccc2cc3cc(C(=O)NCCN4CCN(c5ccccc5F)CC4)oc3nc2c1
  1.73, i, 8.2%

Six entries picked at random from the list so far:
Screens in order: WNV protease inh, MT1-MMP reporter, Hsc70 ATP site
O=S(=O)(c1ccc2ccccc2c1)N1CCN(S(=O)(=O)N2CCOCC2)CC1
  -0.41, i, 4.4%
Cc1ccc(Cc2nnc3n(-c4ccccc4)nc(C(=O)c4ccccc4)n3c2=O)cc1
  /, i, -3.6%
C=C(C)CSc1nnc(-c2ccccc2)n1N
  0.16, i, -5.8%
O=C(NCc1ccc2c(c1)OCO2)c1ccc2c(c1)OCCO2
  /, i, 0.7%
COc1cc(CNc2ccc3[nH]c(=O)[nH]c3c2)cc(Cl)c1OCC(=O)NC(C)(C)C
  0.24, i, 1.3%
Cn1c(=O)c2c(O)cc(=O)[nH]c2n(-c2ccccc2)c1=O
  0.35, i, -8.0%
